High-throughput results from PubChem BioAssay.
Choline anaer gr: choline-fed anaerobic bacterial growth inhibition; Gram-negative bacterium anaerobic choline minimal medium, absorbance growth; active compounds read low; many inactives read as strong as hits in the columns shown; actives 0.2% (n = 55,000); AID 1963822; calls only;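 active = growth z-score on choline under -2 at 7 or 20 h with little or no fall on glycerol, limits in tiers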;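 note: stock transfer was 300 nL into about 50 µL; the organism is E. coli; final concentration not given here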
Choline anaer gr early: also measured in Choline anaer gr; calls as there; z-score; measured here: choline growth z-score, timepoint 1;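 score of optical density at 7 h as mean of two plates; lower means less growth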
An asterisk follows results filed as active; & = joins results of further samples.

How did CC(=O)N1CCc2c(sc(NC(=O)C3COc4ccccc4O3)c2-c2nc3ccccc3s2)C1 (configuration not stated) do in these assays?
Choline anaer gr: inactive; Choline anaer gr early: -0.15

What do the screens show for `O=C1CC2(CCCCC2)Oc2c1ccc(O)c2O`?
Choline anaer gr: inactive; Choline anaer gr early: 0.11

How did O=C(c1nnc(-c2cc(S(=O)(=O)NC3CCCCC3)c[nH]2)o1)N1CCCC1 do in these assays?
Choline anaer gr: inactive; Choline anaer gr early: -1.4

How did O=C(Nc1ccc(N2CCN(Cc3ccc4c(c3)OCO4)CC2)c(C(=O)O)c1)c1ccc(Cl)cc1 do in these assays?
Choline anaer gr: inactive; Choline anaer gr early: 0.07

How did COC(=O)c1cc(S(=O)(=O)NCCC(=O)NCc2ccc(Cl)cc2)cn1C do in these assays?
Choline anaer gr: inactive; Choline anaer gr early: -0.5

How did CCCNC(=O)Cc1ccc(-n2c(=O)c3ccccc3n(CC(=O)Nc3ccc(C)cc3Cl)c2=O)cc1 do in these assays?
Choline anaer gr: inactive; Choline anaer gr early: -0.61

Results for CC(CCc1ccccc1)NC(=O)C1CCN(C(=O)c2sccc2-n2cccc2)CC1 (configuration not stated) ?
Choline anaer gr: inactive; Choline anaer gr early: -0.16

What do the screens show for `Cc1ccc(-c2ncc(C(=O)NCc3cccc(F)c3)c(C)n2)cc1`?
Choline anaer gr: inactive; Choline anaer gr early: -0.6

Results for CN1CCc2c(sc3c2CN(C(=O)Nc2ccc(F)cc2)C(c2ccc(F)cc2)c2cccn2-3)C1 (configuration not stated) ?
Choline anaer gr: inactive; Choline anaer gr early: 1

How did Cc1ccc(C(=O)OCC(=O)C(C)(C)C)cc1N1C(=O)c2c(C)nc3ccccc3c2C1=O do in these assays?
Choline anaer gr: inactive; Choline anaer gr early: -0.87

Results for CCC[C@@H]1C[C@@H](C(=O)N[C@@H](C2O[C@H](SC)[C@H](O)[C@@H](O)[C@H]2O)[C@H](C)Cl)N(C)C1 (some centres not stated) ?
Choline anaer gr: inactive; Choline anaer gr early: 0.47

How did CN(Cc1ccccc1)C(=O)C1CC(=O)N(CCc2c[nH]c3ccc(Cl)cc23)C1 (configuration not stated) do in these assays?
Choline anaer gr: inactive; Choline anaer gr early: 0.4

What do the screens show for `COc1ccc(OC)c2sc(N3CCN(C(=O)C4=COCCO4)CC3)nc12`?
Choline anaer gr: inactive; Choline anaer gr early: -0.71

What do the screens show for `COc1cc(Cl)ccc1S(=O)(=O)Nc1ccc2nnc(-c3cccc(Br)c3)n2n1`?
Choline anaer gr: inactive; Choline anaer gr early: 0.82

What do the screens show for `CCCc1nnc2n1NC(c1ccc(CC)cc1)C(C(=O)Nc1cc(C)cc(C)c1)S2` (configuration not stated)?
Choline anaer gr: inactive; Choline anaer gr early: 0.32

What do the screens show for `Cc1ccc2oc(-c3nnc(C(=O)NCCN4CCCC4)o3)c(C)c2c1`?
Choline anaer gr: inactive; Choline anaer gr early: -0.34

What do the screens show for `Cc1ccc(-c2cc3c(SCC(N)=O)nccn3n2)cc1`?
Choline anaer gr: inactive; Choline anaer gr early: -1.1

How did CC(C)SC(=N)N do in these assays?
Choline anaer gr: inactive; Choline anaer gr early: 0.33

How did CCCC(C(=O)Nc1cc(OC)cc(OC)c1)N1Cc2ccccc2C1=O (configuration not stated) do in these assays?
Choline anaer gr: inactive; Choline anaer gr early: 0.72

What do the screens show for `Cc1ccc(C)c(C2CC(=O)Nc3c2c(C)nn3-c2ccc3nncn3n2)c1` (configuration not stated)?
Choline anaer gr: inactive; Choline anaer gr early: -0.46

Results for O=C(NCc1cccs1)C1CC(=O)N(c2ccc3c(c2)CCN3C(=O)C2CC2)C1 (configuration not stated) ?
Choline anaer gr: inactive; Choline anaer gr early: 0.3

How did Cc1cc2c(cc1C)N(CC(=O)Nc1cc(F)ccc1F)C(=O)C1CCCC1=N2 (configuration not stated) do in these assays?
Choline anaer gr: inactive; Choline anaer gr early: -1.2

What do the screens show for `CC(C)NCc1cc(=O)n2[nH]c(NCc3ccc(C(C)C)cc3)nc2n1`?
Choline anaer gr: inactive; Choline anaer gr early: -0.12

What do the screens show for `Cc1ccc(CC(=O)N2CCCC(c3nc4c(nnn4Cc4ccc(F)cc4)c(=O)[nH]3)C2)cc1` (configuration not stated)?
Choline anaer gr: inactive; Choline anaer gr early: 0.98

How did Cc1cccc(COC(=O)c2nnn(-c3ccc(C)c(Cl)c3)c2C)c1 do in these assays?
Choline anaer gr: inactive; Choline anaer gr early: -0.75

How did O=C1CC(c2noc(C3CCC3)n2)CN1c1ccccc1 (configuration not stated) do in these assays?
Choline anaer gr: inactive; Choline anaer gr early: 0.57

How did CCCCNC(=O)c1cccc(Nc2ccc(-c3cccc(C)c3)nn2)c1 do in these assays?
Choline anaer gr: inactive; Choline anaer gr early: 0.48

Results for COc1ccc(C2C(C(=O)O)c3cc(OC)c(OC)cc3C(=O)N2c2ccc(OC)cc2)cc1 (configuration not stated) ?
Choline anaer gr: inactive; Choline anaer gr early: -0.25

Results for O=C(COc1cccc(-c2nc(-c3ccccc3)no2)c1)N1CCOCC1 ?
Choline anaer gr: inactive; Choline anaer gr early: -0.94

What do the screens show for `O=C(Oc1cccc2cccnc12)c1ccccc1`?
Choline anaer gr: inactive; Choline anaer gr early: 0.54

How did COc1ccc(NC(=O)N2CCN(CCn3c(C)nc4cccnc43)CC2)cc1Cl do in these assays?
Choline anaer gr: inactive; Choline anaer gr early: 0.31

What do the screens show for `CC(C)NC(=O)CN1C(=O)CCSc2ccc(S(=O)(=O)N3CCCC3)cc21`?
Choline anaer gr: inactive; Choline anaer gr early: -0.57

Results for Cc1ccc(-c2nc(Cn3nnc(-c4nc(-c5ccc(Br)cc5)no4)c3C)c(C)o2)cc1 ?
Choline anaer gr: inactive; Choline anaer gr early: -0.8

How did O=C(Nc1ccc2nc(SCC(=O)N3CCOCC3)sc2c1)C1CCCCC1 do in these assays?
Choline anaer gr: inactive; Choline anaer gr early: 0.21

Results for O=S(=O)(c1cn(Cc2noc(/C=C/c3ccccc3)n2)cn1)N1CCOCC1 ?
Choline anaer gr: inactive; Choline anaer gr early: -0.1

What do the screens show for `O=C1CC(c2cc(F)cc(F)c2)Cc2nc(N3CCc4ccccc43)ncc21` (configuration not stated)?
Choline anaer gr: inactive; Choline anaer gr early: -0.39

What do the screens show for `Cc1nc2cc(-c3noc(C(C)Oc4ccccc4)n3)ccc2n(C2CCCC2)c1=O` (configuration not stated)?
Choline anaer gr: inactive; Choline anaer gr early: -0.6

How did CCCc1noc(-c2cc(S(=O)(=O)NC)ccc2OC)n1 do in these assays?
Choline anaer gr: inactive; Choline anaer gr early: -1.8

How did O=C1CN(Cc2ccccc2Cl)S(=O)(=O)c2ccccc2N1Cc1cccc(F)c1 do in these assays?
Choline anaer gr: inactive; Choline anaer gr early: 0.04

How did CCOc1ccc(C(=O)Nc2ccc3c(c2)NC(=O)CO3)cc1 do in these assays?
Choline anaer gr: inactive; Choline anaer gr early: 0.13

Looked up by structure from the entries so far, 3 records:
Results for O=S(=O)(c1cn(Cc2noc(/C=C/c3ccccc3)n2)cn1)N1CCOCC1 ?
Choline anaer gr: inactive; Choline anaer gr early: -0.1

How did CCOc1ccc(C(=O)Nc2ccc3c(c2)NC(=O)CO3)cc1 do in these assays?
Choline anaer gr: inactive; Choline anaer gr early: 0.13

How did O=C(Nc1ccc2nc(SCC(=O)N3CCOCC3)sc2c1)C1CCCCC1 do in these assays?
Choline anaer gr: inactive; Choline anaer gr early: 0.21

New compounds follow:
Results for Cc1cc(C)cc(C(=O)NC(=NCc2ccncc2)Nc2ccc3c(c2)OCO3)c1 ?
Choline anaer gr: inactive; Choline anaer gr early: -0.37

What do the screens show for `COc1ccc(OC)c(C2CC(c3c(O)n(C)c(=S)[nH]c3=O)=NN2C(C)=O)c1` (configuration not stated)?
Choline anaer gr: inactive; Choline anaer gr early: 0.09

Results for C=CCn1c(=O)c(=O)n(CC(=O)NCCc2cccc(OC)c2)c2ccccc21 ?
Choline anaer gr: inactive; Choline anaer gr early: -0.92

Results for Cc1ccc(C2C3=C(CC(c4ccc(Cl)cc4)CC3=O)Nc3onc(C)c32)cc1 (configuration not stated) ?
Choline anaer gr: inactive; Choline anaer gr early: -0.27

Results for CCOc1ccccc1N(C)C(=O)Cn1ncc2c(=O)oc3ccc(C)cc3c21 ?
Choline anaer gr: inactive; Choline anaer gr early: 0.69

Results for O=C(c1cnc2sccn2c1=O)N1CCN(c2ccccc2F)CC1 ?
Choline anaer gr: inactive; Choline anaer gr early: -0.97

How did CCOc1ccc2nc(NC(=O)c3nc4ccccc4nc3Cl)sc2c1 do in these assays?
Choline anaer gr: inactive; Choline anaer gr early: -1.1

What do the screens show for `O=c1n(Cc2cccc(F)c2)c2ccccc2c2nc(-c3ccccc3)nn12`?
Choline anaer gr: inactive; Choline anaer gr early: 0.05

Results for CC(C)c1cc(N2CCCCC2C)n2nc(-c3cccnc3)nc2n1 (configuration not stated) ?
Choline anaer gr: inactive; Choline anaer gr early: 0.26

What do the screens show for `CC(C)c1nc2c(c(C(=O)NCCN(C)C)n1)OCCO2`?
Choline anaer gr: inactive; Choline anaer gr early: 0.11

How did CCOC(=O)CNC(=O)CSc1nnc(Cc2cccn2C)n1-c1ccc(F)cc1 do in these assays?
Choline anaer gr: inactive; Choline anaer gr early: -0.44

Results for CCn1c(C2CCN(C(=O)Nc3ccsc3C(=O)OC)C2)nc2cccnc21 (configuration not stated) ?
Choline anaer gr: inactive; Choline anaer gr early: 0.63

What do the screens show for `CS(=O)(=O)Nc1cc(C(=O)NC2CCCC2)ccc1N1CCNCC1`?
Choline anaer gr: inactive; Choline anaer gr early: -0.04

Results for O=C(CN1CCCN(Cc2cccc(Cl)c2)S1(=O)=O)Nc1ccc2c(c1)OCCO2 ?
Choline anaer gr: inactive; Choline anaer gr early: 0.69

Results for Cc1noc2c1C(c1cccc(O)c1)C1=C(CC(c3ccc(Cl)cc3)CC1=O)N2 (configuration not stated) ?
Choline anaer gr: inactive; Choline anaer gr early: 0.8

Results for Cn1ncc2c(NC3CCCCC3)ncnc21 ?
Choline anaer gr: inactive; Choline anaer gr early: -0.18

What do the screens show for `O=c1[nH]c2ccc(S(=O)(=O)Nc3ccc(F)c(Cl)c3)cc2[nH]1`?
Choline anaer gr: inactive; Choline anaer gr early: -1.5

What do the screens show for `Cn1c(=O)c2c(C(=O)N3CCCCC3)cc(=O)n(C)c2n(C)c1=O`?
Choline anaer gr: inactive; Choline anaer gr early: -1.4

Results for CCCCCCN1C(=O)CC(C)Nc2ccccc21 (configuration not stated) ?
Choline anaer gr: inactive; Choline anaer gr early: -2.8

What do the screens show for `CC(C)n1cnc2scc(-c3ccccc3)c2c1=O`?
Choline anaer gr: inactive; Choline anaer gr early: 0.32

Results for O=C(NCC(c1ccccc1)c1c[nH]c2ccccc12)NC1CCCCC1 (configuration not stated) ?
Choline anaer gr: inactive; Choline anaer gr early: 0.78

What do the screens show for `CC1CN2C(=O)Cc3c(S(=O)(=O)N4CCCC4)ccc(c32)S1` (configuration not stated)?
Choline anaer gr: inactive; Choline anaer gr early: 1

Results for CN1CCN(C(=O)C2CCN(c3nn4cc(-c5ccc(F)cc5)nc4s3)CC2)CC1 ?
Choline anaer gr: inactive; Choline anaer gr early: -0.7

Results for CCOc1cc(C2NCCc3c2[nH]c2ccc(Cl)cc32)ccc1O (configuration not stated) ?
Choline anaer gr: active; Choline anaer gr early: -1.8*

How did Fc1ccccc1-c1ccc(SCc2nc(-c3ccc(Cl)cc3)no2)nn1 do in these assays?
Choline anaer gr: inactive; Choline anaer gr early: 0.44

How did CNCC(O)c1ccc(OC(=O)C(C)(C)C)c(OC(=O)C(C)(C)C)c1 (configuration not stated) do in these assays?
Choline anaer gr: inactive; Choline anaer gr early: -0.04

Results for CCOC(=O)c1[nH]c2ccccc2c1NC(=O)c1ccc(OC)cc1 ?
Choline anaer gr: inactive; Choline anaer gr early: 1.7

What do the screens show for `COc1ccc(NC(=O)c2ccc3nnc(SCC(=O)Nc4ccc(C)cc4F)n3c2)cc1`?
Choline anaer gr: inactive; Choline anaer gr early: 0.18

How did O=C(c1ccc(F)cc1)N1CC(OCc2ccc(Cl)cc2)C1 do in these assays?
Choline anaer gr: inactive; Choline anaer gr early: 0.02

Results for CN(C)CCN(Cc1cccs1)c1ccccn1 ?
Choline anaer gr: inactive; Choline anaer gr early: -0.14&-0.83

Results for Nc1ccc(S(=O)(=O)Nc2cnc3ccccc3n2)cc1 ?
Choline anaer gr: inactive; Choline anaer gr early: -0.02

What do the screens show for `CCCNC(=O)N1c2ccccc2NC2=C(C(=O)CC(C)(C)C2)C1c1ccc(C)cc1` (configuration not stated)?
Choline anaer gr: inactive; Choline anaer gr early: 0.82

What do the screens show for `O=C1c2ccccc2C(Nc2cccc(F)c2)N1Cc1ccc2c(c1)OCO2` (configuration not stated)?
Choline anaer gr: inactive; Choline anaer gr early: -0.82

What do the screens show for `Cc1noc(-c2ccc(NC(=O)C3CC3)cc2)n1`?
Choline anaer gr: inactive; Choline anaer gr early: -0.46

Results for COc1ccc(CNC2=NCCNC23CCC(C)CC3)cc1 (configuration not stated) ?
Choline anaer gr: inactive; Choline anaer gr early: 0.45

Results for Cc1cccc(NC(=O)C2CCCN(S(=O)(=O)c3c(C)nn(CC(=O)N4CCc5ccccc54)c3C)C2)n1 (configuration not stated) ?
Choline anaer gr: inactive; Choline anaer gr early: -0.65

Results for CCSc1nnc2c(n1)OC(c1ccc(Br)cc1)Nc1ccccc1-2 (configuration not stated) ?
Choline anaer gr: inactive; Choline anaer gr early: 0.36

Three entries out of the list, ordered by SMILES length, rising.
What do the screens show for `Cc1noc(-c2ccc(NC(=O)C3CC3)cc2)n1`?
Choline anaer gr: inactive; Choline anaer gr early: -0.46

Results for COc1ccc(CNC2=NCCNC23CCC(C)CC3)cc1 (configuration not stated) ?
Choline anaer gr: inactive; Choline anaer gr early: 0.45

Results for CCSc1nnc2c(n1)OC(c1ccc(Br)cc1)Nc1ccccc1-2 (configuration not stated) ?
Choline anaer gr: inactive; Choline anaer gr early: 0.36

A portion of the library; the hit share may differ from the screen's.
